Bioassay records deposited in PubChem BioAssay by ICCB-Longwood Screening Facility, Harvard Medical School.
Ab BasE inh – inhibitors of Acinetobacter baumannii siderophore enzyme BasE | purified BasE, fluorescence polarization binding displacement | inhibition, % (concentration not given with the values) | 0.1% of 84,000 active;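 active = both replicates above 25% with normal brightness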;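 also: 0% = negative plate control signal and 100% = positive plate control signal; stock transfer was 100 nL into about 30 µL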
LANA-nucl inh – LANA-nucleosome interaction inhibition | 0.3% of 51,000 active | z-score (no concentration beside the values) | FITC-LANA1-23 / chicken nucleosome fluorescence polarization; active compounds read low;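 active = both repeat wells score below -2 in polarization z-score versus plate sample wells, excluding overly bright wells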;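 also: 100 nL library stock added to about 30 µL; numbers are from one replicate; some results filed as inactive read as strong as hits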
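System – purified chicken nucleosomes with FITC-labelled LANA N-terminal peptide (1-23) · Amount – 240 nM purified chicken nucleosomes (480 nM peptide binding sites), final · Also added – 50 nM FITC-LANA1-23 probe · Medium – TEN-BT buffer, pH 7.5 · Incubation – compound with peptide–nucleosome mix 10–45 min at room temperature · Detection – fluorescence polarization, ex 480 nm, em 535 nm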
* = called active by the depositor; x = no result given; & = joins results of further samples.

SMILES	Ab BasE inh	LANA-nucl inh
N#CC1=C(N)Oc2n[nH]c(-c3ccccc3)c2C12C(=O)Nc1ccccc12 (stereo unspecified)	-1.7	0.035
Cc1cc(C)cc(N2C(=O)CSC2c2cccs2)c1 (stereo unspecified)	0.5	x
NC(=O)c1ccsc1NC(=O)C1=NN(c2ccccc2)C(=O)CC1	0.5	x
CCN(Cc1ccc(Br)s1)C(=O)CSc1nnc(C2CC2)n1C1CC1	1.4	x
CC1CCC(N2CC(=O)N(Cc3ccc4c(c3)OCO4)C(c3ccc(F)cc3)C2=O)CC1 (stereo unspecified)	-0.1	-0.15
COc1ccc(C(CNC(=O)c2oc3ccc(C)cc3c2C)N2CCCCC2)cc1 (stereo unspecified)	-9.1	1.4
Cc1cccc(NC(=O)CSc2ncnc3c2oc2ccccc23)c1	0.8	-0.86
O=C(Nc1ccccc1)c1csc(-c2ccccc2)n1	x	-0.23
COC(=O)c1cc(=O)n2c(-c3cccs3)nnc2s1	0.1	-0.19
COc1ccc(C(=O)NCc2nnc(SCc3nc4ccccc4c(=O)[nH]3)n2C)cc1	0.5	0.74
COc1ccc(NC(=O)C(Cc2ccccc2)n2cccc2)cc1 (stereo unspecified)	2.1	0.33
N#CC(C#N)=C(N)/C(C#N)=C/c1ccco1	2.2	0.0065
COC(=O)c1ccc(CN2C(=O)NC(Cc3c[nH]c4ccccc34)C2=O)cc1 (stereo unspecified)	1.5	x
CCc1cc2c(N(CC)CC)nc(C)nc2s1	-0.2	0.33
Cc1ccc2c(c1C)NC(C(=O)O)C1CC=CC21 (stereo unspecified)	5.6	2.1
CC1CC(C)CN(C(=O)Cn2cnc3c2c(=O)n(C)c(=O)n3C)C1 (stereo unspecified)	0.4	-0.8
Cc1cc(C(=O)NNc2ccc(C(C)C)cc2)n(C(C)(C)C)n1	-1.9	-0.59
O=C1Oc2ccccc2C(=O)/C1=C/N1CCCCC1	3.9	x
CCN1C(=O)/C(=C2\SC(=Nc3cccc(Cl)c3C)NC2=O)c2ccccc21	0.8	0.5
O=C1C(CCS(=O)c2ccccc2)C(=O)N(c2ccccc2)N1c1ccccc1 (stereo unspecified)	-0.9&4.0	0.41&-1.7&0.52
C=CCn1c(SCC(=O)Nc2c(C)n(C)n(-c3ccccc3)c2=O)nnc1-c1ccncc1	-1.9	x
Cc1cccc(-n2c(SCC(N)=O)nc3ccccc3c2=O)c1	0.4	-0.076
N#CCc1ccc(NC2(C#N)CCCCC2)cc1	1.2	x
Cc1ccc(C(C)C)c(OCC(=O)Nc2nonc2NC(=O)COc2cc(C)ccc2C(C)C)c1	-2.4	1.3
Cc1c(C#N)c(NC(=O)CN2CCCCC2C)n(Cc2ccco2)c1C (stereo unspecified)	-0.2	x
CC1(C)OC(CO)C(CO)O1 (stereo unspecified)	1.3	0.15
CC(=O)Nc1ccc(SC2CCOC2=O)cc1 (stereo unspecified)	-0.5	x
COc1ccc(NC(=O)CN2CCN(S(=O)(=O)/C=C/c3ccccc3)CC2)cc1	-1.5	x
CCOC(=O)C1CCN(C(=O)c2ccc(C)cc2)CC1	0.6	1
CCOC(OCC)P(=O)(c1ccccc1)c1ccccc1	0.9	0.19
c1nc2c3sc4nc(N5CCOCC5)c5c(c4c3ncn2n1)CCC5	-3.7	2
O=S(=O)(c1ccc(Br)s1)N1CCCC1c1ccc2c(c1)OCCCO2 (stereo unspecified)	1.7	x
N#C/C(=C\c1ccc(N2CCOCC2)o1)C(=O)NCC1CCCO1 (stereo unspecified)	-23	3.2
N#Cc1ccc(CN2CCc3ccccc3C2)cc1	1.2	-0.61
NNC(=O)c1nc(-c2ccccc2)cc(-c2ccccc2)n1	-0.4	0.5
OCCNc1ncnc2ccccc12	0.2	x
O=C1OC(c2ccccc2)=N/C1=C\c1cn(-c2ccccc2)nc1-c1cccs1	-3.7	0.14
N=C1C(c2nc3ccccc3s2)=C(O)CN1/N=C/c1ccc(-c2ccc(S(=O)(=O)Nc3ncccn3)cc2)o1	1.4	x
Cc1cc(SCC(=O)N(C)C2CCS(=O)(=O)C2)nc2ccccc12 (stereo unspecified)	-2.1	x
CCCCC/C=C\C/C=C\C/C=C\CCCCCCC(=O)O	-2.7	0.12
N#Cc1nc2[nH]c(-c3ccccc3)cc(=O)n2c1C#N	10	x
O=C(COC(=O)C12CCC(=O)N1c1ccccc1S2)c1c[nH]c2ccccc12 (stereo unspecified)	-1.5	x
CCOC(=O)c1ccc(N=C2SC(C(=O)O)CC(=O)N2Cc2cccs2)cc1 (stereo unspecified)	-0.1	x
O=C(CC1SC(=O)NC1=O)Nc1cccc(NC(=O)CC2SC(=O)NC2=O)c1 (stereo unspecified)	0.8	0.0075
Cc1cc(Nc2ccccc2)nc2cc(O)ccc12	0.3	0.25
Cc1ccc(OCc2nc(C#N)c(NCCCN(C)C)o2)cc1	-3.5	-1.6
FC(F)(F)c1cc2[nH]c(=S)[nH]c2cc1Cl	-1.9	0.13
Cc1ccnc(NC2c3ccccc3C(=O)N2Cc2ccccc2)c1 (stereo unspecified)	-1.9	-0.18
Cc1ccc(S(=O)(=O)c2nc(-c3ccccc3Br)oc2N(C)C)cc1	1.0	x
O=C(NCCO)c1ccc2nc(-c3ccco3)c(-c3ccco3)nc2c1	23	0.25

Random excerpt: two records from the list, in no set order.
SMILES	Ab BasE inh	LANA-nucl inh
N#CC1=C(N)Oc2n[nH]c(-c3ccccc3)c2C12C(=O)Nc1ccccc12 (stereo unspecified)	-1.7	0.035
O=C(CC1SC(=O)NC1=O)Nc1cccc(NC(=O)CC2SC(=O)NC2=O)c1 (stereo unspecified)	0.8	0.0075

The results go on.
SMILES	Ab BasE inh	LANA-nucl inh
CCO/C=N/c1c(C#N)c2c(c(=S)n1C)COC(C)(C)C2	1.7	-0.46
COc1cc2c(=O)n(CC3CCCO3)c(=O)n(CC(=O)c3cccc(Br)c3)c2cc1OC (stereo unspecified)	-5.0	0.14
O=C(N1CCCC1)N1c2ccccc2C=Cc2ccccc21	1.0	2.3
N#Cc1ccccc1/C=C/C(=O)N(CCO)CC(O)c1ccccc1 (stereo unspecified)	-0.6	-0.19
N#CC(C#N)=Cc1ccc(OC(=O)c2cccs2)cc1	-5.5	x
CCn1c2ccccc2c2nnc(SCC(=O)c3cc(C)n(-c4ccc5c(c4)OCCO5)c3C)nc21	0.5	x
CCN(CC)c1nc(N)nc(Nc2ccc3cc(-c4ccccc4)c(=O)oc3c2)n1	-1.4	0.033
CCc1ccc(N2C(=O)CC(Sc3ccccn3)C2=O)cc1 (stereo unspecified)	1.6	x
CC(=O)NC1C2CN3CCN(C2)CC1(Cc1ccccc1)C3 (stereo unspecified)	2.8	-1.2
NC(=O)c1ccsc1NC(=O)COc1ccccc1	4.2	0.19
CCOC(=O)c1cc2c(ccc3ccccc32)o1	-1.4	0.78
NC(=O)Cc1nnc(-c2ccccc2)c(-c2ccccc2)n1	-2.5	0.14
O=S(=O)(c1ccc(OC(F)(F)F)cc1)N1CCN(Cc2nnc(-c3ccco3)o2)CC1	1.6	x
Cc1noc2ncnc(N3CCCC(C(=O)N4CCN(c5ccccc5F)CC4)C3)c12 (stereo unspecified)	0.8	x
O=C(NC1CC2CCCC(C1)N2Cc1ccccc1)C1CC1 (stereo unspecified)	2.5	-0.35
O=C(NCc1ccccc1)c1cc(C2CC2)[nH]n1	0.5	-1
COc1ccc(Br)cc1-c1noc(C)n1	2.0	0.22
CC(OC(=O)c1nn(C)c(=O)c2ccccc12)c1ccccc1 (stereo unspecified)	-0.4	x
Cc1oc(-c2ccccc2)nc1C(=O)NC12CC3CC(CC(C3)C1)C2	1.6	x
CCC(CO)n1c(SCc2ccc(C#N)cc2)nc2cc(OC)c(OC)cc2c1=O (stereo unspecified)	-1.5	x
CN1C(=O)c2[nH]nc(-c3ccccc3)c2C1c1cccnc1 (stereo unspecified)	-3.0	2.4
COC(=O)c1cccc(-n2c(CCC(=O)O)ccc2-c2ccccc2)c1	1.2	x
CS(=O)(=O)N1CC2CCCN2c2ccc(C(F)(F)F)cc21 (stereo unspecified)	x	0.42
CCC/C(C)=C/Cc1c(O)c2c(c(C)c1OC)COC2=O	x	-0.58
Cc1ccccc1NC(=O)COc1ccc2c(c1)OC(C)(C)CC2=O	0.2	x
C/C=C/C(=O)OCc1ccccc1Cl	0.1	x
COc1ccc(C(=O)Nc2ccc(N3CCOCC3)c(F)c2)cc1	x	0.82
O=c1c(-c2ccccc2)c(O)c2cccc3c4ccccc4n1c23	4.3	x
O=C(C1CCCCC1)N1N=C2/C(=C/c3cccs3)CCCC2C1c1cccs1 (stereo unspecified)	3.3	x
CCS(=O)(=O)c1nnnn1-c1ccccc1	-2.4	3.3

Reformatted with each value named: entries from further up.
SMILES: Cc1c(C#N)c(NC(=O)CN2CCCCC2C)n(Cc2ccco2)c1C (stereo unspecified)
  Ab BasE inh: -0.2
  LANA-nucl inh: x

SMILES: CC1(C)OC(CO)C(CO)O1 (stereo unspecified)
  Ab BasE inh: 1.3
  LANA-nucl inh: 0.15

SMILES: CC(=O)Nc1ccc(SC2CCOC2=O)cc1 (stereo unspecified)
  Ab BasE inh: -0.5
  LANA-nucl inh: x

SMILES: COc1ccc(NC(=O)CN2CCN(S(=O)(=O)/C=C/c3ccccc3)CC2)cc1
  Ab BasE inh: -1.5
  LANA-nucl inh: x

Copied from the list.
CS(=O)(=O)N1CC2CCCN2c2ccc(C(F)(F)F)cc21 (stereo unspecified) in LANA-nucl inh shows 0.42
COc1ccc(C(=O)Nc2ccc(N3CCOCC3)c(F)c2)cc1 in LANA-nucl inh shows 0.82
O=C(C1CCCCC1)N1N=C2/C(=C/c3cccs3)CCCC2C1c1cccs1 (stereo unspecified) in Ab BasE inh shows 3.3
CN1C(=O)c2[nH]nc(-c3ccccc3)c2C1c1cccnc1 (stereo unspecified) in Ab BasE inh shows -3.0
Cc1ccccc1NC(=O)COc1ccc2c(c1)OC(C)(C)CC2=O in Ab BasE inh shows 0.2

Other entries follow:
SMILES	Ab BasE inh	LANA-nucl inh
COc1ccccc1Cn1cccc1C1=NC(CC(C)C)CO1 (stereo unspecified)	0.5	-0.19
Cc1cc(C)cc(CC(C)CC(=O)Nc2ccccc2I)c1 (stereo unspecified)	3.0	x
COC(=O)c1ccc(CNC(=O)c2oc3ccc(OC)cc3c2C)cc1	1.7	x
CCCCOc1ccc(CC(=O)O)cc1	-1.6	0.32
COc1cc(C2CC(C(F)(F)F)n3ncc(C(=O)NC(C)(C)C)c3N2)cc(OC)c1OC (stereo unspecified)	-3.6	1.7
O=C1NC(=S)N(Cc2ccco2)C(=O)/C1=C\c1cn(CC(=O)N2CCOCC2)c2ccccc12	5.0	-0.057
CC(=O)NCc1cc2c(cc1Br)OCO2	2.4	-1.1
Fc1ccccc1OCCSc1nnc2c(n1)[nH]c1ccccc12	1.4	x
CC1CCN(C(=O)CN(c2ccc(Cl)c(C(F)(F)F)c2)S(=O)(=O)c2ccccc2)CC1	1.2	x
CCc1ccccc1Oc1coc2cc(OC(=O)c3ccccc3F)ccc2c1=O	-0.1	x
Cc1onc(-c2ccccc2Cl)c1C(=O)NC(C(=O)O)C(C)C (stereo unspecified)	0.9	-0.89
COc1ccc(OC)c(C2CC(=O)N(c3ccccc3)C3=C2C(=O)OC3)c1 (stereo unspecified)	0.1	0.35
CCN(Cc1nc2ccccc2c(=O)[nH]1)Cc1nc2ccc(Cl)cc2n1CCO	1.7	x
COC(=O)NCN1C(=O)C2C3C=CC(C3)C2C1=O (stereo unspecified)	1.0	x
N#Cc1c(Nc2ccccc2)sc2c(O)cc(=O)[nH]c12	-7.7	1.4
COc1ccc(S(=O)(=O)Nc2cc3oc4ccccc4c3cc2OC)cc1	0.8	x
O=C(NC1CCc2ccccc21)c1n[nH]c(=O)c2ccccc12 (stereo unspecified)	2.4	-1.2
NS(=O)(=O)c1ccc(NC(=O)OCC(F)(F)F)cc1	1.1	x
CCc1ccc(Oc2coc3cc(OC(C)C(=O)OCC(C)C)ccc3c2=O)cc1 (stereo unspecified)	-1.1	x
O=C(NC1CCCCC1)c1ccc2c(c1)NC(=O)C(CS(=O)(=O)Cc1ccc(F)cc1)N2 (stereo unspecified)	-32	0.48

Overlap with the part before: three entries; new compounds follow.
SMILES	Ab BasE inh	LANA-nucl inh
NS(=O)(=O)c1ccc(NC(=O)OCC(F)(F)F)cc1	1.1	x
CCc1ccc(Oc2coc3cc(OC(C)C(=O)OCC(C)C)ccc3c2=O)cc1 (stereo unspecified)	-1.1	x
O=C(NC1CCCCC1)c1ccc2c(c1)NC(=O)C(CS(=O)(=O)Cc1ccc(F)cc1)N2 (stereo unspecified)	-32	0.48
Cc1ccc(NC(=O)COC(=O)C2CCC(=O)N2)c(S(=O)(=O)N2CCOCC2)c1 (stereo unspecified)	-2.2	x
Cc1ccc2c(C)c(C(=O)N(Cc3ccccc3F)C3CCS(=O)(=O)C3)oc2c1 (stereo unspecified)	-1.6	-0.036
CCOC(=O)c1cc(-c2ccnn2C(=O)c2ccc(C)cc2)on1	-0.4	-0.74
O=C1CS(=O)CN1c1ccc(Br)cc1 (stereo unspecified)	x	-0.71
Cc1ccc(CNC(=O)C2C3C=CC4(CN(Cc5cccnc5)C(=O)C24)O3)cc1 (stereo unspecified)	2.6	0.46
Cc1noc(C)c1COc1ccc(C(=O)OCC(=O)Nc2sc3c(c2C(N)=O)CCC3)cc1	-3.2	x
c1ccc(-c2csc(-c3ccc(-c4ccccn4)s3)n2)cc1	0.0	0.45
CCc1ccc(-c2nnn(CC#N)n2)cc1	-5.7	1.6
Cc1ccc(NC(=O)C2CC=CCC2C(=O)N2CCCCC2)cc1 (stereo unspecified)	-1.5	1.1
CCOC(=O)c1ccc(NC(=S)NN2CCN(C)CC2)cc1	1.5	x
C=C(C)c1cccc(C(C)(C)NC(=O)N(C)C2CCN(C)CC2)c1	1.1	-0.89

Not all compounds are listed, so the mix of outcomes need not match the whole.
